Calb biofilm kill = mixture kills Candida albicans biofilm cells. C. albicans biofilm persisters + clotrimazole, fluorescence viability; primary screen in compound mixtures of four per well. actives 0.02% (n = 120,000). inhibition, % at 7.6 µM;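 active = inhibition above 30.3% in the primary screen of four-compound pools, then above 30% when the compound was retested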;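 also: compounds exposed to preformed 24 h biofilms for 48 h; the number belongs to the whole pool; some results filed as inactive read as strong as hits; inactives centre near 12; 0% = biofilm with clotrimazole alone and 100% = kill control; retested singly at about 60 µM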
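Incubation: 24 h biofilm formation, then 48 h compound exposure, 37 °C | Material: C. albicans biofilms | Buffer or medium: RPMI/MOPS medium, pH 7.0 | Measured by: 2-h Alamar Blue fluorescence, 535/590 nm excitation/emission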
An asterisk follows results filed as active. A portion of the library; count on the stated rates, not on these rows.

smiles,Calb biofilm kill
CCN(CC)S(=O)(=O)c1ccc(C(=O)N(c2ccccc2)C2C=CS(=O)(=O)C2)cc1 (stereo not given),12
CCOC(=O)c1c(NC(=S)Nc2ccc(Cl)cc2)sc2c1CCN(C)C2,5
COc1ccc2c(c1)O/C(=C\c1sccc1C)C2=O,8
COCCCNCCCCOc1ccc(Br)cc1C,1
Cc1nc2ccccn2c1C(=O)NN=C1CCN(C)CC1,0
Cc1cc(C)c2cc(C#N)c(NCCNC(=S)NCCCN3CCOCC3)nc2c1,2
CC(C)(C)NC(=O)CSCc1c(Cl)cccc1Cl,8
O=C(NCC1CCCO1)C(c1cccs1)N(Cc1ccccc1)C(=O)c1ccc(-c2ccccc2)[nH]1 (stereo not given),18
COc1ccc2nc(NNC(=O)C3COc4ccccc4O3)sc2c1 (stereo not given),0
Cc1cc(CNC(=O)COc2ccccc2)c2ccccc2n1,4
Cc1occc(=O)c1O,11
O=C(O)c1ccc(CSc2nc3ccc(NC(=O)c4ccccc4C(=O)O)cc3s2)cc1,20
Cn1cc(/C=C(\C#N)C(=O)Nc2ncc(Cc3ccc(Cl)cc3)s2)c2ccccc21,14
c1ccc(Cc2nnc(N3CCCCC3)c3ccccc23)cc1,4
COc1cccc(CN2CCN(Cc3nc(-c4cccc(F)c4F)oc3C)CC2=O)c1,4
O=C(CN1CCC(N2CCCCC2)CC1)N1CCOCC1,19
Cc1nc(Cl)c(C(=O)Nc2cccc(F)c2)c(C)c1Cl,10
COc1ccc(C2=NN(C(=O)CCC(=O)O)C(c3cccs3)C2)cc1 (stereo not given),16
CNC(=S)Nc1cc(Cl)ccc1Oc1ccccc1,10
CCOc1ccccc1NC(=O)COC(=O)Cc1ccc(-c2ccccc2)cc1,15
O=C(NOC(=O)c1ccccc1)c1ccccc1,17
CC1=NC(=O)C(N=Nc2ccccc2)N1c1ccccc1 (stereo not given),-2
CC1=NN(c2nc(-c3ccc(C#N)cc3)cs2)C(=O)C1,8
CC(C)c1onc(C(=O)N2CCN(C(c3ccccc3)c3ccccc3)CC2)c1[N+](=O)[O-],9
O=C(NC(=S)Nc1ccc(N2CCOCC2)c(Cl)c1)c1sc2ccccc2c1Cl,13
CC(=O)Nc1ccc(/C=C(\C#N)C(=O)NC2CCCCC2C)cc1 (stereo not given),3
Cc1ccc(-c2nc(N3CCOCC3)sc2C(=O)N2CCCCC2)cc1,-4
Nc1cc(N2CCCCC2)c([N+](=O)[O-])cc1Cl,15
COc1cc(/C=N/NC(=S)Nc2cccc(C(=O)O)c2)cc(OC)c1OC,4
Cc1nc(CC(=O)NNS(=O)(=O)c2ccc3ccccc3c2)cs1,5

smiles,Calb biofilm kill
Cc1ccc(S(=O)(=O)Oc2ccc(/C=C(/NC(=O)c3ccccc3)C(=O)NCCC(=O)O)cc2)cc1,10
COc1ccc(C(=O)NNS(=O)(=O)c2ccccc2)cc1,17
CCn1c(CNc2ccc(F)cc2)nnc1SCC(=O)Nc1ccc(OC)cc1,8
C[C@]12CC[C@@H]3c4ccc(O)cc4CC[C@H]3[C@@H]1C[C@@H](O)[C@@H]2O[C@@H]1O[C@H](C(=O)O)[C@@H](O)[C@H](O)[C@H]1O,-3
Cc1c(O)cc2c(c1O)C(=O)CC(c1ccccc1)O2 (stereo not given),12
O=C(CCCSc1nnc(Nc2ccccc2F)s1)N1CCOCC1,-4
CCOc1cc(/C=N/NC(=O)C(C)Sc2ccccn2)ccc1O (stereo not given),13
O=C(COC(=O)/C=C/c1ccc(S(=O)(=O)N2CCOCC2)cc1)NCc1ccccc1,2
COC(=O)Nc1ccc(S(=O)(=O)N2CCC(C(=O)N(C)C3CCCCC3)CC2)cc1,12
N#CC1=C(N)Nc2nc3ccccc3n2C1c1ccc(F)cc1 (stereo not given),15
O=C(O)CNC(=O)c1ccc(Sc2ccccc2)c([N+](=O)[O-])c1,21
COc1ccc(/C(C)=N/Nc2ccc(F)cc2F)c(O)c1,4
CC1CCCC(NC(=O)c2ccc3c(SCC(=O)O)c4c(nc3c2)CCC4)C1C (stereo not given),19
CCN(CC)S(=O)(=O)c1cc(NC(=O)NCCCl)ccc1C,23
O=C(c1ccc(Cl)cc1[N+](=O)[O-])N(Cc1ccccc1)Cc1ccccc1,9
CC(Sc1ccccc1)C(=O)N/N=C/c1cccnc1 (stereo not given),6
O=C1OCCN1C(=O)[C@H]1[C@H](c2ccc(F)cc2)C(c2ccc(F)cc2)=NN1c1ccc(Br)cc1,17
Nc1nnc(SCC(=O)OCC(=O)Nc2ccc(Br)cc2F)s1,8
CCOC(=O)/C(=C\C=C1/Sc2cc(OCC)c(OCC)cc2N1CC)C(C)=O,29
CC1(C)OC(C)(C)/C(=C/Nc2ccc(O)cc2)C1=O,8
C/C(N)=C(/C#N)C(=O)COC(=O)CNS(=O)(=O)c1ccc(F)c(F)c1F,-3
O=C(CSc1nnc2ccccn12)NCCc1ccc(Cl)cc1,4
COc1ccc(-c2csc(NC(=O)C3CC(=O)N(Cc4ccco4)C3)n2)cc1 (stereo not given),6
COc1ccc(NC(=O)CSc2ccc(F)cc2)cc1S(=O)(=O)N1CCCCC1,22
CCOC(=O)Cc1ncccc1C(=O)Nc1ccc(Oc2ccccc2)cc1,7
Cc1ccc(Sc2sc(=O)n(C)c2S(=O)(=O)c2ccc(C)cc2)cc1,13
COc1ccc(NC(=O)N2CCCCC2c2cccnc2)cc1 (stereo not given),9
Cc1ccc(N=C(N(C)C)P(=O)(N(C)C)N(C)C)c(C)c1,8
Cc1nn(-c2ccc(Cl)cc2)c(=O)c2c(C)noc12,9
COc1cc(C(=O)OCCNC(=O)c2ccncc2)cc(OC)c1OC,14

smiles,Calb biofilm kill
COc1c(Cl)cccc1-c1cn2ccccc2n1,19
CCOc1c(Cl)cc(CNCc2ccccn2)cc1OC,7
COc1ccc(/C(=N/OC(C)=O)c2nccc3cc(OC)c(OC)cc23)cc1OC,12
O=C(Nc1cccc(Cl)c1N1CCOCC1)c1ccc([N+](=O)[O-])o1,14
O=C1CCCN1CC1CCN(Cc2nc(CC3CC3)no2)CC1,5
Cc1cc(NC(=O)c2ccc(Br)c([N+](=O)[O-])c2)no1,17
Cc1ccc(-n2c(Cc3noc4ccccc34)n[nH]c2=S)cc1,5
Cc1cc(OCCOCCN(C)C)ccc1Cl,6
O=[N+]([O-])c1nn(-c2ccc3c(c2)OCCO3)n(O)c1=NCc1ccc(F)cc1,18
CCCCC(=O)Nc1ccc(NC(=S)NC(=O)CC(C)C)cc1OC,3
CNC(=O)/C(=C\c1cccc(Oc2ccccc2)c1)NC(=O)c1ccccc1,18
CN(C)S(=O)(=O)c1cccc(NC(=O)COC(=O)c2cccn2C)c1,8
Cc1ccc(N2CCN(C(=S)c3ccc(-c4ccccc4[N+](=O)[O-])o3)CC2)cc1,9
O=C(Nc1ccccc1)C1=C(O)CC(c2ccc(Cl)cc2)N2CCN=C12 (stereo not given),10
Cc1c(C(=O)N2CCc3ccccc3C2)oc2ccc(S(=O)(=O)N3CCCCCC3)cc12,11
COc1cc(C(CCN2CCCCC2)c2c(OC)cc(OC)c3c(C)cc(=O)oc23)cc(OC)c1OC (stereo not given),16
Oc1ccc(Br)cc1CNc1ccccn1,30
CCC(c1nnnn1C1CCCC1)N1CCC(C(N)=O)CC1 (stereo not given),9
Cc1cc(C)c(O)c(N)c1,33
CCN(C(=O)COC(=O)CNC(=O)C12CC3CC(CC(C3)C1)C2)C1CCS(=O)(=O)C1 (stereo not given),11
C=CCNCCCOc1ccc(Cl)cc1C(C)(C)C,9
COCCn1c(CCc2ccccc2)n[nH]c1=S,24
CN(C)C1C(=O)c2ccccc2C1=O,7
Cc1cccc2nc(CSc3nc4ccccc4o3)cn12,3
O=C(O)c1c[nH]c(=O)c2ccccc12,4
CCOC(=O)CNC(=O)CSc1nc(-c2ccc(OC)cc2)ns1,16
NC(=O)C1=C[C@@H](c2coc3ccccc3c2=O)C[C@@H](OCCCCO)O1,20
CNc1ncc(-c2nnnn2-c2ccccc2)c(-c2ccccc2)n1,23
CC1=C(C(=O)Nc2ccccc2C(F)(F)F)C(c2sccc2C)NC(=S)N1 (stereo not given),9
O=C(NCc1ccc2c(c1)OCO2)C(C(=O)c1ccccc1)n1cc(Cl)ccc1=O (stereo not given),11

smiles,Calb biofilm kill
C=C(C)CN(CC)C(=O)CCc1nnc(CCCc2ccccc2)o1,8
Cc1ccc(S(=O)(=O)Nc2cc(=O)[nH]c(SCC(=O)Nc3ccccc3Cl)n2)cc1,11
COc1ccc(-n2cc(CNC3CCC(O)CC3)c(-c3cccc(F)c3)n2)cc1 (stereo not given),1
COc1cc(NCc2ccccc2O)c2ncccc2c1,16
O=C(C1=C[C@@H](c2csc3ccccc23)C[C@@H](OCc2ccc(CO)cc2)O1)N1CCOCC1,18
COc1ccc(/C=N/NC(=O)c2cccc(OC(F)(F)C(F)F)c2)c(OC)c1OC,0
Cc1ccc(Nc2nnc(SCC(=O)NC3CCCc4ccccc43)s2)cc1 (stereo not given),15
O=C(N/N=C/c1ccco1)c1ccn[nH]1,-14
O=C1Nc2ccc(Cl)cc2C12Nc1ccccc1-c1nnc(SCc3ccccc3F)nc1O2 (stereo not given),12
CC(C)(C)OC(=O)NCCNC(=O)c1cccs1,13
CCCNC(=O)NC(=O)COC(=O)/C=C/c1cc(Br)ccc1F,13
CC(C)(C)OC(=O)N[C@@H](CC(=O)OCc1ccccc1)C(=O)O,6
O=C(Nc1ccc(Oc2cccnc2)nc1)c1ccc(C(F)(F)F)cc1,-6
CCOC(=O)Cn1c(=NC(=O)c2sc3ccccc3c2Cl)sc2cc(S(N)(=O)=O)ccc21,10
CN(C1CCCCC1)S(=O)(=O)c1ccc2[nH]c(=O)oc2c1,16
C=CCN(CC=C)S(=O)(=O)c1ccc(C(=O)Nc2nnc(CSC)o2)cc1,7
C/C(=N\NC(=O)c1nc2ccccn2c1C)c1ccc2c(c1)OCO2,17
C/C=C/c1ccc(OC(C)=O)c(OC)c1,16
Cc1ccc(C)c(/C=C(\C(=O)O)c2ccc(S(=O)(=O)N3CCCCC3)s2)c1,15

No new results follow: 28 of the compounds above.
smiles,Calb biofilm kill
COCCn1c(CCc2ccccc2)n[nH]c1=S,24
CN(C)C1C(=O)c2ccccc2C1=O,7
Cc1cccc2nc(CSc3nc4ccccc4o3)cn12,3
O=C(O)c1c[nH]c(=O)c2ccccc12,4
CCOC(=O)CNC(=O)CSc1nc(-c2ccc(OC)cc2)ns1,16
NC(=O)C1=C[C@@H](c2coc3ccccc3c2=O)C[C@@H](OCCCCO)O1,20
CNc1ncc(-c2nnnn2-c2ccccc2)c(-c2ccccc2)n1,23
CC1=C(C(=O)Nc2ccccc2C(F)(F)F)C(c2sccc2C)NC(=S)N1 (stereo not given),9
O=C(NCc1ccc2c(c1)OCO2)C(C(=O)c1ccccc1)n1cc(Cl)ccc1=O (stereo not given),11
C=C(C)CN(CC)C(=O)CCc1nnc(CCCc2ccccc2)o1,8
Cc1ccc(S(=O)(=O)Nc2cc(=O)[nH]c(SCC(=O)Nc3ccccc3Cl)n2)cc1,11
COc1ccc(-n2cc(CNC3CCC(O)CC3)c(-c3cccc(F)c3)n2)cc1 (stereo not given),1
COc1cc(NCc2ccccc2O)c2ncccc2c1,16
O=C(C1=C[C@@H](c2csc3ccccc23)C[C@@H](OCc2ccc(CO)cc2)O1)N1CCOCC1,18
COc1ccc(/C=N/NC(=O)c2cccc(OC(F)(F)C(F)F)c2)c(OC)c1OC,0
Cc1ccc(Nc2nnc(SCC(=O)NC3CCCc4ccccc43)s2)cc1 (stereo not given),15
O=C(N/N=C/c1ccco1)c1ccn[nH]1,-14
O=C1Nc2ccc(Cl)cc2C12Nc1ccccc1-c1nnc(SCc3ccccc3F)nc1O2 (stereo not given),12
CC(C)(C)OC(=O)NCCNC(=O)c1cccs1,13
CCCNC(=O)NC(=O)COC(=O)/C=C/c1cc(Br)ccc1F,13
CC(C)(C)OC(=O)N[C@@H](CC(=O)OCc1ccccc1)C(=O)O,6
O=C(Nc1ccc(Oc2cccnc2)nc1)c1ccc(C(F)(F)F)cc1,-6
CCOC(=O)Cn1c(=NC(=O)c2sc3ccccc3c2Cl)sc2cc(S(N)(=O)=O)ccc21,10
CN(C1CCCCC1)S(=O)(=O)c1ccc2[nH]c(=O)oc2c1,16
C=CCN(CC=C)S(=O)(=O)c1ccc(C(=O)Nc2nnc(CSC)o2)cc1,7
C/C(=N\NC(=O)c1nc2ccccn2c1C)c1ccc2c(c1)OCO2,17
C/C=C/c1ccc(OC(C)=O)c(OC)c1,16
Cc1ccc(C)c(/C=C(\C(=O)O)c2ccc(S(=O)(=O)N3CCCCC3)s2)c1,15

Copied from the list:
C=C(C)CN(CC)C(=O)CCc1nnc(CCCc2ccccc2)o1 in Calb biofilm kill is entered as 8
CC(C)c1onc(C(=O)N2CCN(C(c3ccccc3)c3ccccc3)CC2)c1[N+](=O)[O-] in Calb biofilm kill is entered as 9
